eIF4H FP inh: human eIF4H binding inhibitors, primary screen, translation initiation inhibitor project, biochemical, uHTS, fluorescence polarization. 0.94% of 290,000 active. AID 2012, 2009. inhibition, % at 35 µM. eIF4H fluorescence polarization binding assay. Eukaryotic translation initiation factor 4H (Homo sapiens), Q15056;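 active means 50% or more with normal probe brightness, or confirmed in later tests; inconclusive means above 50% with abnormal brightness, or retests that disagree; inactive means below 50% or failed in later tests; about a fifth of its hits are not listed in these tables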;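 further: calls also rest on retests at 20 µM and on dose response follow-up; 0% = protein and probe with vehicle and 100% = probe without protein; strong numbers were not always called active; many hits fall short of the cut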
Rce1 inhib: yeast Rce1p protease inhibitors, primary screen, biochemical, fluorescence, cell-free homogeneous; CAAX prenyl protease 2 (Saccharomyces cerevisiae (strain ATCC 204508 / S288c)), Q03530; yeast membranes, quenched prenylated peptide cleavage fluorescence; calls only; 0.27% of 290,000 active; AID 2563, 2010;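 active means fall in fluorescence gain of 50% or more versus controls, with final raw signal at or below 3038400; inconclusive means same 50% fall but final raw signal above 3038400; inactive means fall in fluorescence gain under 50%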;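 further: plate controls were neutral control wells for no effect and wells lacking membranes for full effect; tested at 10 µM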
Target sequence (Q03530 whole entry, looked up): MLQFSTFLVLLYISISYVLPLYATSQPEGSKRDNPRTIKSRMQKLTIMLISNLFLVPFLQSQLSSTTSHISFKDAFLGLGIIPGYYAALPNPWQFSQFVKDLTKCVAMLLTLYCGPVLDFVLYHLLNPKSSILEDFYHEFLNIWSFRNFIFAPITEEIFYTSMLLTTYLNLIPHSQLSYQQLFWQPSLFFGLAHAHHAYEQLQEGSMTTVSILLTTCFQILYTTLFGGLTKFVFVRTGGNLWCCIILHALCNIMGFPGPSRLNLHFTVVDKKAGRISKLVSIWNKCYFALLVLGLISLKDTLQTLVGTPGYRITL
PABP polyA inh: PABP poly(A) RNA binding inhibitors, primary screen, biochemical, fluorescence polarization, uHTS. inhibition, % at 35 µM. 1% of 290,000 active. Polyadenylate-binding protein 1 (Homo sapiens), P11940;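 active means 50% or more with normal probe brightness, or confirmed in later tests; inconclusive means above 50% with abnormal brightness, or retests that disagree; inactive means below 50% or failed in later tests; about a fifth of its hits are not listed in these tables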;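 further: calls also rest on retests at 20 µM and on dose response follow-up; controls were probe without protein and protein plus probe with vehicle; some compounds called inactive have numbers as strong as hits; many hits fall short of the cut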
HIV Env fusion: inhibitors of HIV-1 Env-driven cell-cell fusion, primary screen, HeLa-JRFL effector, CEM21 target cells, luciferase; inhibition, % at 12.3 µM; 1.1% of 360,000 active; AID 651610, 2012;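 active means mean replicate inhibition score of at least 50 and every replicate individually at or above 50; inconclusive means only one of the two criteria met; inactive means mean below 50 and not all replicates reaching 50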;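 further: 0% = plate neutral controls and 100% = maraviroc near 300 nM; one replicate is shown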
CSC inhib: cancer stem cell viability inhibitors, primary screen, luminescence; cancer stem cell-like cells viability; inhibition, % at 7.5 µM; 1.1% of 300,000 active; AID 2717, 2010;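 active means mean at 75% or more and at least half the replicates too; inconclusive means mean and replicates disagree; tested in HMLE shEcad cells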;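 further: 0% = median of negative and 100% = median of positive control wells; the first replicate is given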
MT1-MMP act inh: blockers of MT1-MMP proenzyme processing, primary screen, HT1080 RFP-PRO-GFP cells, GFP/RFP fluorescence. GFP/RFP ratio change, % at 20 µM. 0.061% of 360,000 active. GFP/RFP ratio fluorescence, overnight; percent of plate control window, DMSO zero. Matrix metalloproteinase-14 (Homo sapiens), P50281;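 active means GFP/RFP ratio change of at least 30% with cell ATP level not reduced by more than half and red fluorescence within 50% of control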; further: strong numbers were not always called active
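Test system: HT1080 RFP-PRO-GFP cells; Benchmarks: DMSO and RFP-L50D-GFP cell wells; Timing: cells overnight before dosing, compound overnight, 37 °C, 5% CO2; Compound: one 20 µM compound dose with 1% DMSO; Read-out: GFP/RFP fluorescence ratio.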
Yeast UUG start: modulators of yeast start codon fidelity, primary screen, whole organism, S. cerevisiae, single point, plate reader; S. cerevisiae UUG-firefly luciferase reporter, luminescence/redox ratio; activity score, % at 18.7 µM; 0.13% of 350,000 active;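 active means replicate mean at a twofold rise or more, about +100% in these data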;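 further: firefly luciferase made from a UUG start codon reports start codon fidelity; reporter light over untreated wells divided by growth signal over untreated wells; some hits fall short of that in this replicate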
MT1-MMP act inh RFP: second read-out of MT1-MMP act inh, no call of its own (marks repeat the call); RFP signal change, %; measured here: RFP expression control read;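 0 = vehicle wells; hits needed this value within 50% of zero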
* hit, by the source's call; i = inactive; ? = inconclusive; . = no result given.

SMILES	eIF4H FP inh	Rce1 inhib	PABP polyA inh	HIV Env fusion	CSC inhib	MT1-MMP act inh	MT1-MMP act inh RFP	Yeast UUG start
O=C(Nc1nc(-c2ccccn2)cs1)c1ccc(Br)s1	20.8	i	-1.8	8.4	97.0*	3.9	-9.4	-70.1
O=c1[nH]c(N2CCc3ccccc32)nc2c1CCCC2	-0.2	i	-5.9	.	-11.1	0.1	-3.0	-0.6
Cc1nc(C)c(C(=O)C2=C(O)C(=O)N(CCN3CCOCC3)C2c2ccco2)s1 (stereo unspecified)	-2.2	i	24.6	.	-2.8	2.2	6.7	-6.1
CCOC(=O)C1CCN(C(=O)CCn2c(=O)[nH]c3ccsc3c2=O)CC1	4.0	.	-8.5	0.0	-13.2	2.5	-0.9	-1.3
S=c1[nH]nc(Nc2ccccc2)s1	1.7	i	0.3	-6.4	-2.6	0.2	-4.1	.
CC(C)NC(=O)CN(C(=O)CCC(=O)Nc1ccccn1)c1ccc(F)c(Cl)c1	-5.3	i	-7.4	.	1.7	1.6	5.4	-16.2
O=C(CSc1nc2[nH]c(=O)cc(O)c2s1)NCCc1ccccc1	.	.	.	-8.6	.	-4.2	1.6	-1.5
CC(=O)C1CCCN(C(=O)c2ccc3nc(Cc4cccc(Cl)c4)oc3c2)C1 (stereo unspecified)	-6.1	i	6.0	3.9	11.0	3.2	2.0	-7.9
Cc1cc(O)c(Sc2ccccc2)c(=O)o1	.	i	.	1.8	1.5	-0.4	4.5	-9.8
Cc1ccc(C(=O)OC(C)CN2CCOCC2)cc1 (stereo unspecified)	-5.8	i	-6.4	-4.0	-18.7	6.2	1.0	11.3
CC(Sc1nc2ccccc2s1)C(=O)NCc1ccc2c(c1)OCO2 (stereo unspecified)	2.9	i	-4.3	3.6	-13.1	1.9	2.6	.
COc1ccc(C)cc1NC(=O)COC(=O)c1ccc2c(c1)OCO2	.	.	.	-12.6	-1.7	11.7	0.1	1.1
Cc1ccc(-c2n[nH]c(=S)n2/N=C/c2cccn2C)cc1	-10.3	i	-2.3	.	-12.1	0.6	-2.1	.
COc1ccccc1CNc1ccc2nnc(CCNC(=O)c3ccc(C)cc3)n2n1	-1.2	i	-8.7	16.4	4.9	-0.1	-2.7	.
CCSc1nnc(NC(=O)CSC2=NCCS2)s1	3.9	i	4.7	-8.4	2.0	-9.2	-0.7	.
COc1cc(C=O)ccc1OCCCOc1ccccc1C(=O)O	7.5	i	14.6	.	-12.2	-0.5	-2.9	-74.7
CCC(=O)Nc1c(C)c(CC)nc2ccccc12	-8.2	i	-5.3	-14.7	-1.8	-2.1	-5.3	.
COc1ccc(C(=O)OCC(=O)N2C(C)CCCC2C)cc1S(=O)(=O)N1CCOCC1 (stereo unspecified)	.	.	.	-14.6	-16.1	-1.1	5.4	0.8
O=C(CCCN1C(=O)C(c2ccccc2)Oc2cccnc21)NCc1ccccc1Cl (stereo unspecified)	.	i	.	7.4	1.0	-2.0	-1.2	-16.2
CN(C)C(CNC(=O)c1cc2ccccc2o1)c1ccco1 (stereo unspecified)	.	.	.	2.3	-30.9	-3.6	0.5	-7.5
CCOC(=O)c1c(NC(=O)CN2CCCc3ccccc32)sc(C)c1CC	0.2	i	-16.6	-3.3	2.2	-10.0	0.0	.
CCc1nc(SCc2ccccc2C)n[nH]1	-1.9	i	7.3	-10.5	-19.8	-2.2	3.0	-24.2
COc1ccc(-c2c(C)nn(Cc3ccccc3)c2N)cc1	-3.0	i	14.4	-24.8	-8.6	3.4	-3.9	-5.0
O=C(Nc1cc(S(=O)(=O)N2CCOCC2)ccc1N1CCCCC1)c1ccccc1Br	.	.	.	7.1	-14.7	-8.4	-1.8	1.3
Cn1c(N)c(C(=O)NCc2ccccc2Cl)sc1=S	-5.9	i	2.2	.	-3.8	7.1	-2.0	-14.5
S=C(NCc1ccccc1)NCc1cccc(Cl)c1	-1.5	i	-2.8	-12.3	-16.4	0.8	1.7	-49.3
CCOC(=O)C1(Cc2ccc(O)cc2)NC(c2ccco2)C2C(=O)N(c3ccccc3F)C(=O)C21 (stereo unspecified)	-4.1	i	5.8	-101.4	-12.4	1.9	4.5	-3.1
O=C(Nc1nccs1)c1ccc2c(c1)OCO2	-11.1	i	4.4	-23.5	.	-2.1	-1.2	8.3
Cc1ccc(NS(=O)(=O)c2ccc(C)c(C(=O)Nc3ccc(S(=O)(=O)Nc4onc(C)c4C)cc3)c2)cc1	.	.	.	-4.1	.	1.5	2.1	-5.6
COCCNC(=O)/C(C#N)=c1\s/c(=C\c2ccccc2OC(F)F)c(=O)n1Cc1ccccc1	44.9	i	21.3	.	-9.0	.	.	.
OC1(c2cccc(C(F)(F)F)c2)CCN(c2ncnc3c2[nH]c2ccc(F)cc23)CC1	4.4	.	6.5	.	.	-2.3	-29.8	14.1
O=C(COCC(=O)N/N=C/c1ccc(F)cc1)N/N=C/c1ccc(F)cc1	-5.9	i	7.6	-14.8	1.3	-2.1	1.7	6.8
O=C(NC1CCCCC1)C(c1ccncc1)N(C(=O)c1csnn1)c1cccc(F)c1 (stereo unspecified)	-5.4	i	-1.3	5.7	-1.6	2.8	2.1	-16.7
CN(C)CCNc1c2c(nc3ccccc13)CCC2	.	i	.	-0.9	11.0	3.0	4.3	-15.4
Cc1ccc(C(=O)CSC2=C(C#N)C(c3ccco3)C3=C(CC(C)(C)CC3=O)N2)cc1 (stereo unspecified)	12.6	i	4.9	.	97.2*	-0.5	-5.6	-9.6
COc1ccccc1NC(=O)NCC1CC1(Cl)Cl (stereo unspecified)	-8.7	i	3.3	-6.2	12.7	-7.6	-1.2	-21.4
C=CCn1c(COc2ccc(F)cc2)nnc1SCC(=O)Nc1cccc(S(N)(=O)=O)c1	-2.0	.	14.4	3.3	-11.8	4.7	-2.2	-14.8
CC1=NCC(C)c2ccccc21 (stereo unspecified)	.	.	.	0.8	.	-3.2	5.1	-31.6
Cc1cc(NC(=O)COc2cccnc2[N+](=O)[O-])no1	-2.8	i	-16.1	9.3	-0.9	0.1	1.4	.
Cc1ccccc1NC(=O)CN(C)S(=O)(=O)c1ccc(-c2ccc(=O)[nH]n2)s1	4.5	i	10.4	16.8	7.2	-3.2	-0.6	-15.4

Structures above that contain a cyano group:
SMILES	eIF4H FP inh	Rce1 inhib	PABP polyA inh	HIV Env fusion	CSC inhib	MT1-MMP act inh	MT1-MMP act inh RFP	Yeast UUG start
COCCNC(=O)/C(C#N)=c1\s/c(=C\c2ccccc2OC(F)F)c(=O)n1Cc1ccccc1	44.9	i	21.3	.	-9.0	.	.	.
Cc1ccc(C(=O)CSC2=C(C#N)C(c3ccco3)C3=C(CC(C)(C)CC3=O)N2)cc1 (stereo unspecified)	12.6	i	4.9	.	97.2*	-0.5	-5.6	-9.6

The list goes on.
SMILES	eIF4H FP inh	Rce1 inhib	PABP polyA inh	HIV Env fusion	CSC inhib	MT1-MMP act inh	MT1-MMP act inh RFP	Yeast UUG start
Cc1onc(-c2c(F)cccc2Cl)c1C(=O)N1CCSCC1	6.2	i	2.7	6.4	-2.2	3.2	1.8	4.1
CCCCC(=O)C1CCN(Cc2ccccc2)CC1	32.9	i	32.7	.	1.4	4.7	4.3	-18.6
O=C1C2C(C(=O)N1/N=C/c1ccc(N3CCCCC3)o1)C1C=CC2C12CC2 (stereo unspecified)	-0.1	i	-9.9	0.9	-0.5	-5.1	2.3	-10.9
CCC(C)NS(=O)(=O)c1ccc(NC(C)=O)cc1 (stereo unspecified)	-4.5	i	-21.3	.	-0.6	3.5	1.9	-11.6
COC(=O)c1cc(NC(=O)CC(=O)c2cccc(N)c2)cc(C(=O)OC)c1	.	.	.	25.9	.	-0.6	4.4	-16.4
CCOc1cc(N2CCOCC2)c(OCC)cc1NC(=O)COc1ccc2ccc(=O)oc2c1	-5.5	i	2.9	.	-10.8	.	.	.
CCN(CC)c1ccc(S(=O)(=O)N2CCOCC2)cc1NC(=O)CSc1nncn1C	.	.	.	0.9	.	1.1	1.5	0.6
O=C(Nc1ccc2c(c1)CCC2)c1cccc(S(=O)(=O)N2CCN(c3ccccc3)CC2)c1	-1.3	i	4.6	19.0	1.7	.	.	-18.2
O=C(O)c1ccccc1-c1cc2ccccc2[nH]1	.	i	.	15.4	-14.5	2.9	-0.1	.
Cc1ccc(N(CC(O)CON=C2c3ccccc3-c3ccccc32)S(C)(=O)=O)cc1 (stereo unspecified)	4.9	i	-11.9	.	.	0.0	-10.9	21.0
COc1cccc(CSc2nccn2C)c1	-5.9	i	0.6	-59.1	-12.8	2.3	1.4	-12.3
CCOC(=O)C1=C(C)N(CCCCCC(=O)O)C(=O)NC1c1ccccc1Cl (stereo unspecified)	-5.0	i	15.8	9.5	9.6	6.7	-0.7	-13.3
CCCCNC(=S)N/N=C/c1ccc(OCC(=O)Nc2c(C)cc(C)cc2C)c(OC)c1	-3.6	i	11.6	18.8	-3.1	-3.1	-2.2	.
Cc1cccc(NC(=O)COc2nsnc2N2CCOCC2)c1	5.5	i	-7.4	-39.3	-17.3	1.8	-0.6	-23.4
c1csc(CNCc2ccncc2)c1	-8.7	i	1.1	3.4	-16.8	-1.4	-0.2	-13.1
Cc1ccc(NC(=O)CSc2nnc(C3CCCCC3)n2N)cc1F	-13.5	.	-5.1	-17.3	-13.1	4.9	2.1	-10.4
Oc1ccc(/C=N\Nc2nncc(-c3ccccc3)n2)cc1	-4.8	i	3.3	-3.1	35.4	9.9	-11.7	-32.7
O=C(Nc1nnc(-c2ccccc2)s1)c1ccccc1F	2.4	i	-20.1	-160.0	6.1	6.0	4.0	-10.9
COC(=O)CN1C(=O)Nc2ccc(Cl)cc2C1c1ccccc1 (stereo unspecified)	0.1	i	-5.5	27.2	13.5	-2.3	-3.8	5.7
CCOc1ccc2nc(NC(=O)Cc3cccs3)sc2c1	-11.2	i	-10.6	.	-12.7	-4.7	-6.9	-9.2
N#Cc1c(Cl)nc(-c2ccncc2)nc1-c1ccccc1	1.0	i	9.5	13.4	-4.1	-0.2	4.5	.
COc1cccc(C(O)c2nc(-c3cccc(CO)c3)cs2)c1 (stereo unspecified)	.	.	.	19.7	.	2.7	-1.4	-0.8
CCCN(CCC)CCCNc1ccc2nnc(-c3ccc(F)cc3)n2n1	0.9	i	-2.4	0.8	-10.7	-4.7	1.5	-18.6
NC(=O)CC(NC(=O)c1ccc(Br)cc1)c1ccc(NCc2ccc(F)cc2)c([N+](=O)[O-])c1 (stereo unspecified)	6.7	i	4.0	2.7	?	9.2	-1.6	-14.2
CCOC(=O)CNC(=O)C(CO)NC(=O)OCc1ccccc1 (stereo unspecified)	5.4	i	-2.4	.	-19.4	-3.0	-1.9	-45.8
O=C(NCC1CCCN1S(=O)(=O)c1cccs1)c1c(F)cccc1F (stereo unspecified)	.	i	.	1.4	-9.8	-0.9	4.1	-5.3
CCOc1ccc(CCNC(=O)c2cc(C)nn2-c2ccccc2)cc1	-8.9	i	1.2	-9.0	-7.9	2.1	-3.4	-23.2

Assay outcomes deposited in PubChem by several laboratories.
